NPYLR7 ag – mosquito NPYLR7 agonism; AID 1259423; HEK293T NPYLR7/Galpha15, GCaMP6s calcium fluorescence; activation, % at 10 µM; 270,000 compounds, 0.15% hits; in the data active = activation above about 40%;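 note: 0% = vehicle and 100% = reference agonist at the receptor; some compounds past the cut are filed as inactive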
NPYLR7 ag max-min – recorded beside NPYLR7 ag, whose call it bears; activation, %; measured here: Max-Min RFU normalised activation; some inactives read as strong as hits;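 span of the calcium signal over five minutes; 0% = vehicle and 100% = native peptide agonist; compound fluorescence can raise it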
An asterisk follows results filed as active; & = joins results of further samples. This is a subset (hit frequency here may not be typical).

The opening seven records, to show the layout:
SMILES	NPYLR7 ag	NPYLR7 ag max-min
CCCCN1CC(c2nc3ccccc3n2Cc2ccc(Br)cc2)CC1=O (stereo not given)	-1	-3
O=C(NCc1ccco1)C(C1CCCC1)N1CCN(C(=O)c2cccc(Br)c2)CC1 (stereo not given)	-4	-2
CC(NC(=O)c1cc(COc2ccccc2)on1)c1nccs1 (stereo not given)	-4	-5
Fc1ccc(-n2cccn2)c(CNCc2cccnc2N2CCOCC2)c1	0	-1
Cc1ccc(C(=O)Nc2ccc(N3CCC(NCCc4ccco4)CC3)cc2)c(C)c1	29	17
Cc1cccc(OCCSc2ccc(S(=O)(=O)N3CCOCC3)cn2)c1	15	5
CCCCN(C=O)c1c(CC)nc2c(OCCOC)cccn12	-3	3

Main list, from the first entry:
SMILES	NPYLR7 ag	NPYLR7 ag max-min
CCCCN1CC(c2nc3ccccc3n2Cc2ccc(Br)cc2)CC1=O (stereo not given)	-1	-3
O=C(NCc1ccco1)C(C1CCCC1)N1CCN(C(=O)c2cccc(Br)c2)CC1 (stereo not given)	-4	-2
CC(NC(=O)c1cc(COc2ccccc2)on1)c1nccs1 (stereo not given)	-4	-5
Fc1ccc(-n2cccn2)c(CNCc2cccnc2N2CCOCC2)c1	0	-1
Cc1ccc(C(=O)Nc2ccc(N3CCC(NCCc4ccco4)CC3)cc2)c(C)c1	29	17
Cc1cccc(OCCSc2ccc(S(=O)(=O)N3CCOCC3)cn2)c1	15	5
CCCCN(C=O)c1c(CC)nc2c(OCCOC)cccn12	-3	3
CN1C(=O)C(CC(=O)NCc2nccs2)(Cc2ccccc2)c2ccccc21 (stereo not given)	6	1
O=S(=O)(Nc1cc(Cl)ccc1Cl)c1ccc(Cl)cc1	3	1
Cc1cc(C)n(-c2cc(NCCNS(=O)(=O)c3ccc4c(c3)OCCO4)nc(C)n2)n1	-10	-14
Cc1nc(C(F)(F)F)nc(-c2cccc3[nH]ccc23)c1C	22	21
COc1cc(OC)cc(-c2nn(-c3cc(C)ccc3C)c(OC(C)=O)c2-c2ccc(NC(=O)C3CCCC3)cc2)c1	4	9
CC1CCN(C(=O)c2ccc(OCC3CCCO3)c(Br)c2)CC1 (stereo not given)	4	-2
Cc1c(Cl)c(C(F)(F)F)nn1CC(=O)NCc1ccco1	4	4
O=c1oc2cc(O)ccc2cc1-c1nnc(Nc2ccc(Oc3ccc(Cl)cc3)cc2)s1	0	-5
Cc1ccc2oc(CN(C(=O)c3cccc(Cl)c3)C(C)C)nc2c1	2	2
COc1ccc(NCC2(c3ccnc(-c4ccnn4C)c3)CC2)cc1	-3	-7
O=C(CCc1c[nH]c2ccccc12)NC[C@@H]1CCNC[C@H]1O	0	1
Cc1c(CN2CCC3(CC2)C(=O)N(Cc2ccccn2)C(=O)N3Cc2ccccc2)cnn1C	9	-1
COc1ccc(NC(=O)CSc2nc3[nH]ncc3c(=O)[nH]2)cc1OC	-3	-4
N#CCNC(=O)c1ccc(-c2ccc(OC(F)F)cc2)s1	-5	-7
CC1(CCc2c[nH]c3ccccc23)NCCc2[nH]cnc21 (stereo not given)	17	13
COCCNC(=O)c1cccc(Nc2c(Oc3ccccc3)cnn(Cc3ccccc3)c2=O)c1	4	7
Cc1nc2scc(C)n2c(=O)c1S(=O)(=O)N1CCN(C(=O)c2ccco2)CC1	-4	-5
O=C(Cn1c(CO)cnc1SCc1ccccc1Cl)NC1CCCC1	7	2
CCCCN(C=O)c1c(CC)nc2c(OCc3ccccc3C)cccn12	2	5
COCCN1C(=O)c2n[nH]c(-c3ccco3)c2C1c1ccc(O)cc1 (stereo not given)	-2	-7
Cc1oc(-c2ccc(C(F)(F)F)cc2)nc1CN(CCO)Cc1ccccc1	-4	-4
O=C(Cn1cnc([N+](=O)[O-])n1)Nc1c(F)cc(F)cc1Br	-7	-11
CNC(=O)[C@@]1(OCc2cccc(C)c2)CC(OCC(=O)OC)[C@@H]2OC(C)(C)O[C@@H]2C1 (stereo not given in full)	1	11
NC(=O)c1cn(Cc2ccccc2Cl)c(C2CC2)n1	-7&0	-8&-6
O=C(CN(CCO)CC1CC1)N1CCN(Cc2cccs2)CC1	4	2
C#Cc1cccc(N(C)C(=O)c2ccc(CN3CCN(C)CC3)cc2)c1	1	-4
Cc1cc(C)cc(-n2nc3c(c2NC(=O)C(C)C)CSC3)c1	-2	3
Cc1ccc(S(=O)(=O)Nc2nc3ccccc3s2)cc1	-2	7
Cc1c(C)n2c3c(=O)n(CCN4CCOCC4)c(=O)n(C)c3nc2n1C(C)C	-1	14
O=C(O)COc1ccc(/C=C(/Cl)c2nc3ccccc3o2)cc1	7	4
CCCCN(CC(=O)N(Cc1cccn1C)CC(C)C)C(=O)Nc1ccccc1CC	-4	6
COCCCN(Cc1csc(COc2cc(C)cc(C)c2C)n1)C(=O)C1CC1	7	20
O=C(NC1CCCc2c1cnn2-c1ccccc1F)c1ccccc1-c1ncc[nH]1 (stereo not given)	18	6

Filtered by structure, those above with a thiophene ring, fused or not.
SMILES	NPYLR7 ag	NPYLR7 ag max-min
N#CCNC(=O)c1ccc(-c2ccc(OC(F)F)cc2)s1	-5	-7
O=C(CN(CCO)CC1CC1)N1CCN(Cc2cccs2)CC1	4	2

Arranged by formula weight (high to low): 3 of the compounds above.
SMILES	NPYLR7 ag	NPYLR7 ag max-min
CCCCN(CC(=O)N(Cc1cccn1C)CC(C)C)C(=O)Nc1ccccc1CC	-4	6
COCCCN(Cc1csc(COc2cc(C)cc(C)c2C)n1)C(=O)C1CC1	7	20
Cc1c(C)n2c3c(=O)n(CCN4CCOCC4)c(=O)n(C)c3nc2n1C(C)C	-1	14

Following part:
SMILES	NPYLR7 ag	NPYLR7 ag max-min
COc1c(Cl)ccc(Cl)c1C(=O)O	-15	-19
CC1=NC2=C(C(=O)CCC2)C(c2coc3ccc(Cl)cc3c2=O)C1C(=O)OC1CCCC1 (stereo not given)	-5	-12
O=c1nc(SCc2ccc(Cl)cc2Cl)nc2ccccn12	4	2
Cc1cnc(-c2ccc(C(C)N3CCOCC3)cc2)c(Cl)c1 (stereo not given)	1	0
O=c1cc(-c2ccccc2)[nH]c(=S)[nH]1	-5	-7
COc1c2c(nc3occc13)C(CCC(C)(C)O)(OC)C(O)CC2 (stereo not given)	0	-4
COCC(=O)N1CCCC(CCC(=O)Nc2ccc(C(F)(F)F)cc2)C1 (stereo not given)	-1	-1
Cc1oc(C(C)C)cc1C(=O)NCCC1CCCN(C)C1 (stereo not given)	-4	-4
Cn1ccc2c1CCCC2C(=O)NCc1ccncc1 (stereo not given)	26	13
Cc1csc(NC(=O)c2c(O)c3ccccc3[nH]c2=O)n1	-5	-10
CCOC(=O)C1CCN(C(c2cccc(OC)c2)C2Sc3nc(C)nn3C2=O)CC1 (stereo not given)	2	5
CC(NC(=O)CCN(CCCN1CCOCC1)c1nc(-c2ccccc2Cl)nc2ccccc12)c1ccccc1 (stereo not given)	15	11
O=C1C2C3C=CC(C3)C2C(=O)N1c1ccccc1[N+](=O)[O-] (stereo not given)	0	-2
CCCC1CCCN(c2ccc(-c3nc(C)cc(=O)[nH]3)cn2)CC1 (stereo not given)	-2	98
c1ccc2c(c1)nc(NC1CCCCC1)c1nnnn12	-1	-2
COC(=O)C1(C)CCN(C(=O)c2cc[nH]c2C)C1 (stereo not given)	-2	-6
CCCCc1nc(N2CCN(C(=O)c3cc(OC)cc(OC)c3)CC2)c2c(C)nn(-c3ccccc3)c2n1	9	14
O=C(NCCc1c[nH]c2ccccc12)c1ccc(Nc2cccc(C(F)(F)F)c2)nc1	22	10
CC1CN(C(=O)C2CSC3(C)CCC(=O)N23)C(=Nc2ccc(Cl)cc2)S1 (stereo not given)	-1	-4
O=C(CCN(CCc1ccccc1)c1nc(-c2ccc(Cl)cc2)nc2ccccc12)NCc1ccco1	8	23
O=C(NCc1nc2ccccc2n1CCC1CCCCC1)c1ccco1	-2	4
NC(=O)CN(Cc1ccc(Cl)cc1)c1ccc2[nH]c(=O)[nH]c2c1	12	2
CCC(C)C(C)N(C(=O)C1CCN(C(=O)c2ccoc2)CC1)C1CC1 (stereo not given)	-1	-5
CN(C)CCNC(CC(=O)Nc1ccc(Br)cc1)C(=O)O (stereo not given)	1	-1
Cc1cc(C)n(-c2nc3ccccc3c3nc(C)nn23)n1	-1	-2
CN(C)C1CCCN(C(=O)Nc2cc(F)cc(N3CCCC3)c2)C1 (stereo not given)	7	5
COc1ccc(C(=O)SC2=NCCS2)cc1	-5	-7
O=C(NCc1cccc(C(F)(F)F)c1)c1ccc2sc(C3=C[C@@H](O)[C@@H](O)[C@@H](CO)O3)nc2c1	-3	-5
CC(C)N(C)CC(=O)Nc1ccc(N2CCc3sccc3C2)cc1	1	2
COc1ccccc1NC(=O)c1c(N=Cc2ccccc2O)cnn1C	2	-5
Cc1cc(Cl)cc(C)c1OCC(=O)Nc1ccccc1N1CCCC1=O	3	1
CC1(C)CC(=O)C2=C(C1)OC(c1ccco1)C(C#N)C2=N (stereo not given)	20	16
COc1cccc(CN(CC2CC(c3ccc(N(C)C)cc3)=NO2)C(=O)NC(C)C)c1 (stereo not given)	22	27
O=C(N=C1N=C2N=CC=CN2Cc2ccccc21)C1CCCCC1	-1	4
Nc1c(S(=O)(=O)O)cc2c3c(cccc13)C(=O)N(CCO)C2=O	93*	71*
CCc1c(C)c(C(=O)NCc2cccc(C(F)(F)F)c2)n(Cc2ccc(F)cc2F)c1C	29	35
CCOc1ccc2ccccc2c1C(=O)N1CCN(c2nccc(-c3ccc4c(c3)OCO4)n2)CC1	0	13
O=C(C1=Cc2ccccc2OC=C1)N1CCOC(C(F)(F)F)C1 (stereo not given)	-2	-6
CCN(Cc1ccccc1)C(=O)Nc1ccccc1SC(F)F	1	0
CC(=O)Nc1cc(C(=O)N2CCCC2c2nccs2)cc2ncn(CCc3ccccn3)c12 (stereo not given)	14	3
CCn1c(-c2ccc(O)c(OC)c2)n[nH]c1=O	15	9
COc1ccc(CN2CCN(Cc3cccn3-c3ncccn3)CC2CCO)c(C)c1C (stereo not given)	49*	50*
O=C(Nc1cccc(C(F)(F)F)c1)c1cc2nc(-c3ccc(F)cc3)cc(C(F)(F)F)n2n1	-7	-13
CC(C)Nc1ncccc1C(=O)N1CCC(n2c(=O)[nH]c3ccccc32)CC1	-12	-17
Cn1cnc2c1c(=O)n(CCn1c(=O)c3c(ncn3C)n(C)c1=O)c(=O)n2C	2	4
COC(=O)c1c(C)oc2ccc(N(C(=O)c3ccncc3)S(=O)(=O)c3ccccc3)cc12	1	9
CC(=O)N1CCc2cc(NC(=O)c3cccnc3N3CCCCC3)ccc21	-1	-3
CC(C(=O)Nc1cccc(Cl)c1)N1CCN(Cc2ncc[nH]2)CC1 (stereo not given)	2	1
CCCCn1c(O)c(C=Nc2ccc(C(C)C)cc2)c(C)c(C#N)c1=O	3	1
CCOC(=O)C1CCCN(C(=O)c2cccc(Nc3c(Oc4ccc(C)cc4OC)cnn(C)c3=O)c2)C1 (stereo not given)	-9	3
Cc1ccc(-n2nc(C)c(-c3ccccc3)c2NC(=O)CN(CC(C)C)C(=O)Nc2cccc(Cl)c2Cl)cc1	0	8
COc1ccc(-n2cc(CNC(C)c3csc(C)n3)c(-c3ccccc3Cl)n2)cc1 (stereo not given)	-5	-13
CC(=O)Nc1cncc(-c2cccc(C(=O)N3CCOCC3)c2)n1	2	-1
Cn1ccnc1-c1cc(Cl)c2c(c1)CC(CN)O2 (stereo not given)	-2	-1
c1ccc(-n2cc(CN3CCNCC3)cn2)cc1	4	0
Cc1cnc2c(C(=O)NCC3CC(C(C)C)=NO3)cnn2c1 (stereo not given)	18&15	12&11
O/N=C\c1cn(CC(O)COc2cccc3cccnc23)c2ccccc12 (stereo not given)	-10	-15
Clc1ccc(C2=Nc3ncnn3C(c3ccccc3Cl)C2)cc1 (stereo not given)	4	10
COc1ccccc1NC(=O)Cn1c2c(c(=O)n(C3CCCCC3)c1=O)CCC2	0	5
O=C(NCC(=O)N1CCCCC1)c1ccc(Cl)cc1I	7	6

For reference, some entries already given.
SMILES	NPYLR7 ag	NPYLR7 ag max-min
COc1ccccc1NC(=O)Cn1c2c(c(=O)n(C3CCCCC3)c1=O)CCC2	0	5
O=C(NCC(=O)N1CCCCC1)c1ccc(Cl)cc1I	7	6

Continued.
SMILES	NPYLR7 ag	NPYLR7 ag max-min
COc1ccc(C2(CNC(=O)c3cc(C)nn3C)CCCCC2)cc1	4	0
CN(C)C(CNS(=O)(=O)c1cc(Cl)ccc1Cl)c1cccn1C (stereo not given)	11	10
CCOC(=O)c1c(NC(=O)c2ccnc(C)n2)sc2c1CCSC2	1	-1
CCOC(=O)c1cc(-c2ccc(Cl)cc2Cl)n(-c2ccc(C(=O)NCc3ccco3)cc2)n1	6	8
COc1cc2oc(=O)cc(C)c2c(OC)c1OC(C)=O	-1	5
COc1cc(N2CCN(Cc3ccc(C(C)(C)C)cc3)CC2)nc(N)n1	14	-2
Cc1c(C(=O)NCc2ccc(F)cc2)sc(=O)n1Cc1cccc(F)c1	2	4
CCC1(c2ccccc2)NC(=O)N(Cc2ccc(F)cc2Cl)C1=O (stereo not given)	1	-1
Cc1ccc(-c2nnc(NC(=O)C(NC(=O)c3ccc(C(F)(F)F)cc3)C(C)C)s2)cc1 (stereo not given)	21	25
Cc1nn2cnc3ccc(Br)cc3c2nc1=O	13	12
O=C(c1cccc(Nc2c(Oc3ccc4c(c3)OCO4)cnn(-c3ccc(Cl)c(Cl)c3)c2=O)c1)N1CCCC1	6	9
COc1cccc(COc2cn(C)c(C(=O)NC(C)c3ccccc3)cc2=O)c1 (stereo not given)	1	1
O=C(NCc1cccc(F)c1)c1csc(COc2cccc(C(F)(F)F)c2)n1	2	11
Cc1nn(C)cc1-c1csc(NCCc2ccccn2)n1	1	0
CCOC(=O)c1cc(-c2cccc(NC(=O)c3ccc4sccc4c3)c2)n(-c2ccccc2C)n1	15	9
Cc1ccccc1NC(=O)CSc1nc(=O)n(Cc2cccnc2)c2c1CCCC2	-5	-6
COCCNc1cc(C)nc2c(-c3ccc(Cl)cc3)cnn12	2	5
O=Nc1ccc(O)c2ncccc12	-13	-15
Cc1ccc(Cl)cc1NC(=O)CSc1nccc(N2CCCCC2)n1	-2	-5
Nc1ccc(Sc2ccc(Br)cc2)cc1	-3	-3

Screening data from PubChem.
